Ab BasE inh: BasE siderophore biosynthesis inhibition; purified BasE, fluorescence polarization binding displacement; inhibition, % (test concentration not listed); 84,000 compounds, 0.1% hits;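 active = both replicates above 25% with normal brightness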;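 also: 0% = negative plate control signal and 100% = positive plate control signal; stock transfer was 100 nL into about 30 µL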
KSHV LANA nucl: inhibitors of KSHV LANA binding to nucleosomes; FITC-LANA1-23 / chicken nucleosome fluorescence polarization; hits give low values; z-score (no concentration beside the values); 51,000 compounds, 0.3% hits; AID 720717;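 active = both repeat wells score below -2 in polarization z-score versus plate sample wells, excluding overly bright wells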;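 also: 100 nL library stock added to about 30 µL; numbers are from one replicate; some results filed as inactive read as strong as hits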
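Material: Purified chicken nucleosomes with FITC-labelled LANA N-terminal peptide (1-23) | Reagent: 50 nM FITC-LANA1-23 probe | Medium: TEN-BT buffer, pH 7.5 | Times: 10–45 min incubation at room temperature | Detection: Fluorescence polarization | Replication: Duplicates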
Starred values were filed as active, the others as inactive; x = no result given. The list is partial. The share of hits here may be higher or lower than overall.

SMILES | Ab BasE inh | KSHV LANA nucl
CC1(C)CC(NCc2ccccc2)CCO1 (stereo not given) | 0.7 | -0.239
Cc1ccc(/C(N)=N/OC(=O)c2ccccc2)cc1 | -1.1 | -1.07
Cc1cccc(NC(=O)C(C)N2CCNC(=O)C2)c1 (stereo not given) | 0.5 | x
Cc1c(C)c2c(c(C)c1O)CCC(C)(C(=O)O)O2 (stereo not given) | -0.1 | -0.0585
COc1ccc(C(=O)OCC(=O)Nc2ncc(Cl)c(C)c2Cl)c(OC)c1 | 11.0 | x
O=C(c1cc2sccc2n1Cc1ccccc1)N1CCN(c2ccccc2F)CC1 | -0.8 | -0.255
O=C(c1ccccc1)c1cccc(NC(=O)C2CC2)c1 | 0.2 | -0.372
O=C(COc1ccc(C2N(Cc3ccccc3)CCN2Cc2ccccc2)cc1)N1CCOCC1 | 1.3 | x
O=C(O)/C=C/c1ccc(Cl)cc1Cl | 1.9 | x
CC(=O)Nc1ccccc1OCc1nnc(-c2ccccc2)o1 | -1.3 | 0.186
Oc1c(N=Nc2ccccc2)cc2c3c1CCCN3CCC2 | 0.1 | x
COC(=O)c1ccc(Oc2ccc(Cl)cc2Cl)o1 | -1.5 | x

Another view of two compounds above:
Every second line gives: Ab BasE inh, KSHV LANA nucl
- CC(=O)Nc1ccccc1OCc1nnc(-c2ccccc2)o1
    -1.3, 0.186
- Oc1c(N=Nc2ccccc2)cc2c3c1CCCN3CCC2
    0.1, x

Other records
SMILES | Ab BasE inh | KSHV LANA nucl
CCn1nnc2sc(-c3ccccc3)cc2c1=O | -1.3 | -0.149
O=c1cc(-c2ccccc2)nc(-c2ccc(Br)cc2)[nH]1 | 4.4 | -0.235
CC(=O)Nc1ccc(S(=O)(=O)N(C)CC(=O)OCc2cn3cc(Cl)ccc3n2)cc1 | -0.7 | x
COc1cc(NC(=O)C(C)(C)C)ccc1Br | -0.8 | x
CC1CCC(=NO)CC1 (stereo not given) | -0.5 | x
Cc1c(NC(=O)c2ccc(C(=O)O)cc2C(=O)O)c(=O)n(-c2ccccc2)n1C | -0.6 | 1.18
Cc1ccc(Oc2nc3ccccc3n3c(C)nnc23)cc1C | 3.9 | -0.005
NC(=O)CSc1nnc(SCCOc2ccccc2)s1 | 0.3 | -0.891
CC1=C(C(=O)N2CCCCC2)C2(CCC(C)CC2)OC1=O (stereo not given) | 0.5 | -0.452
CCCNC(=O)Cn1c2ccccc2c2nc3n(c(=O)c21)CCS3 | -0.4 | -0.065
CCCc1cc(=O)n2nc(N3CCC(C(=O)N4CCCC4)CC3)sc2n1 | 0.1 | -0.765
CC1CN(Cc2c(O)ccc3c(=O)c(-c4ccccc4)coc23)CC(C)O1 (stereo not given) | 3.2 | x
FC(F)(F)c1ccnn1-c1nc(-c2cc3ccccc3o2)cs1 | 0.8 | x
CC(Sc1ccccn1)C(=O)Nc1ccccc1 (stereo not given) | -1.4 | 1.27
CC(NC1CCN(C)CC1)c1ccccc1 (stereo not given) | 2.2 | -0.0565
O=C(CSc1nnc(-c2ccccc2)n1-c1ccccc1)NC1=NCCS1 | -2.2 | x
COC(=O)C(CC(C)C)NC(=O)c1ccccc1C (stereo not given) | -0.2 | x
Cn1nc2c(c1N)CCC2 | -0.5 | x
CCc1ccc2nc(NC(=O)Cn3ccc(=O)[nH]c3=O)sc2c1 | -0.6 | x
COCCCn1c(=O)c2ccccc2n(Cc2ccccc2)c1=O | 1.4 | -1.32
O=C(CCc1nc2ccccc2c(=O)[nH]1)Nc1cccc(O)c1 | 22.0 | x
CC1(C)C2CC=C(/C=N/NC(=O)COc3ccc(C#N)cc3)C1C2 (stereo not given) | 1.9 | x
Nc1c(S(=O)(=O)Cc2ccc(Cl)cc2)sc2nc3c(cc12)CCCC3 | 1.4 | x
CC(=O)N1CCN(c2ccc3ccccc3n2)CC1 | 1.7 | x

Laid out differently: entries from further up
The line under a structure holds: Ab BasE inh, KSHV LANA nucl
> FC(F)(F)c1ccnn1-c1nc(-c2cc3ccccc3o2)cs1
 : 0.8, x
> O=C(CSc1nnc(-c2ccccc2)n1-c1ccccc1)NC1=NCCS1
 : -2.2, x

(further entries)
SMILES | Ab BasE inh | KSHV LANA nucl
CC1(C)Cc2ccccc2CN1C(=O)c1ccccc1 | 0.6 | x
C=CCn1c(SCC(=O)c2ccc(N(C)S(C)(=O)=O)cc2)nnc1C1CCCCC1 | 0.0 | x
O=C(c1cc(F)cc2c1OCOC2)N1CCC(O)(c2ccc(Cl)cc2)CC1 | x | 1.08
O=C(CSc1nnc(-c2ccccc2)o1)NC1CCCC1 | 1.4 | 0.696
Cc1cc(Br)ccc1SCC(=O)OCC(=O)c1ccco1 | -0.8 | x
O=C(c1cc(=O)c2ccccc2o1)N1CCCc2ccccc21 | 3.4 | -0.077
CCN(CC)c1nc(Nc2ccc(OC)cc2)nc(Nc2ccc(OC)cc2)n1 | 0.3 | -1.04
O=C(CCn1[nH]c(=O)ccc1=O)Nc1ccc2c(c1)CCC2 | -0.1 | x
CS(=O)(=O)c1ccc(-c2cc(Br)sc2-c2ccc(F)cc2)cc1 | x | -1.08
CCc1ccc(-c2nc(CSCC(=O)N3CCOCC3)c(C)o2)cc1 | -1.8 | 0.917
O=C1CNC(=S)N1c1ccccc1 | -1.3 | -0.064
CCOc1ccc(-n2c(O)c(/C=N/Nc3nc(C)cc(C)n3)c3ccccc3c2=O)cc1 | 1.1 | x
CC(=O)NC(NC(C)=O)c1ccc2c(c1)OCO2 | 1.1 | 0.801
O=C(Cn1c(-c2cccs2)cc2ccccc21)NCCC1=CCCCC1 | -1.2 | -0.533
CCOC(=O)c1c[nH]c2ccccc2c1=O | x | -1.06
Cc1[nH]c2ccccc2c1/C=C(\C#N)C(=O)NCc1ccco1 | 2.5 | -0.102
CCCCNC(=O)c1c(N)n(/N=C/c2cccnc2)c2nc3ccccc3nc12 | x | -0.623
CCc1ccc(/C=C2/C(=O)N(C)c3ccccc32)cc1 | 1.4 | x
Cc1ccc(-c2ccc(C#N)c(=O)n2CC(=O)N(C)C)cc1 | -2.0 | 0.675
CCOc1ccccc1NC(=O)COC(=O)C1CCC(=O)N1 (stereo not given) | 2.5 | x
NC(=O)C1(C(N)=O)CCC1 | -1.9 | 1.16
CN1C(=O)C(=Cc2ccc(O)cc2)C(=O)N(C)C1=S | -1.4 | -1.29
CN(C)N=Nc1ccc(S(N)(=O)=O)cc1 | -0.2 | -1.3
CC(C)N(C(=O)Cn1nnc2ccccc21)C(C(=O)NCc1ccco1)c1ccccc1 (stereo not given) | 0.1 | 0.361
N#CCNC(=O)c1sc2ccccc2c1Cl | -1.3 | 0.077
COC(=O)C1=C(O)/C(=C\c2ccc(CNS(=O)(=O)c3ccc(Br)cc3)o2)N=C1C | 1.3 | -0.479
Cc1cc(C)nc(SCC(=O)OCC(=O)c2ccc3c(c2)OCO3)n1 | -2.9 | x
O=C(NCC1CCCCC1)c1ccc2c(c1)OCCO2 | 5.0 | x
CC(C)(C)N1CCN(C(C)(C)C)C1=O | 0.9 | x
CC(=O)OC1OCCOC1NC(=S)Nc1cccc(C(F)(F)F)c1 (stereo not given) | -2.5 | x
O=S(=O)(c1ccc2c(c1)Cc1ccccc1-2)N1CCOCC1 | 1.9 | -0.663
O=C(Cn1c(CC(=O)N2CCCC2)nc2ccccc21)NCc1ccccc1 | 0.2 | 1.3
CN(C(=O)CSc1nc2ncccc2[nH]1)C1CCCCC1 | 0.4 | 0.28
COC(=O)c1c(C)oc(C)c1S(=O)(=O)N1CCC(O)(c2ccc(Cl)cc2)CC1 | 2.3 | -0.457
Cc1cc(C)cc(NC(=O)CN2CCC(NC(=O)Cc3ccccc3)CC2)c1 | -3.3 | 2.25
O/N=C/C1=CC(CC(O)CN2CCOCC2)c2ccccc21 (stereo not given) | 0.8 | -0.088
Cc1ccc(SCC(=O)c2ccc(Cl)cc2)cc1 | x | 0.041
O=C(OCC(=O)N1CCOCC1)c1ccc2ccccc2c1 | 1.8 | x
Nc1c(S(=O)(=O)c2ccccc2)c2nc3ccccc3nc2n1CCNC(=O)c1cccs1 | 1.0 | x
CCC(C(=O)NC1CCC(C)CC1)n1sc2ccccc2c1=O (stereo not given) | 0.4 | -1.27
Cc1cc(C(=O)COC(=O)C23CC4CC(CC(O)(C4)C2)C3)c(C)n1C1CC1 | -4.6 | x
CN1C(=O)/C(=C/c2ccc(C(=O)NCC(=O)O)cc2)SC1=S | -0.9 | 1.32
CC1CCCN(C(=O)Cn2c3ccccc3c3nc4n(c(=O)c32)CCS4)C1 (stereo not given) | -1.2 | 0.886
O=C(/C=C/c1ccccc1)c1ccc(O[C@@H]2O[C@H](CO)[C@@H](O)[C@H](O)[C@H]2O)cc1O | 0.1 | -1.07
Cc1ccc2n1CCN(c1nc(-c3ccc(Cl)cc3)cs1)C2C (stereo not given) | 2.7 | 0.144
O=C(CSc1nc2ccccc2c(=O)n1CCO)Nc1ccccc1C(=O)Nc1ccccc1 | 1.5 | x
Cc1cc(=O)oc2cc(OC(C)C(=O)NC3(C#N)CCCCC3)ccc12 (stereo not given) | 3.3 | x
CC(=O)O[C@H]1[C@H](OC(C)=O)[C@H](OC(C)=O)CO[C@@H]1c1nc2ccccc2s1 | 3.0 | x

Shown as labelled records: entries from further up
> Cc1cc(C(=O)COC(=O)C23CC4CC(CC(O)(C4)C2)C3)c(C)n1C1CC1
  Ab BasE inh: -4.6
  KSHV LANA nucl: x
> CN1C(=O)/C(=C/c2ccc(C(=O)NCC(=O)O)cc2)SC1=S
  Ab BasE inh: -0.9
  KSHV LANA nucl: 1.32
> CC1CCCN(C(=O)Cn2c3ccccc3c3nc4n(c(=O)c32)CCS4)C1 (stereo not given)
  Ab BasE inh: -1.2
  KSHV LANA nucl: 0.886

New compounds follow.
SMILES | Ab BasE inh | KSHV LANA nucl
Cc1onc(-c2ccccc2)c1C(=O)OCCN1C(=O)c2ccccc2C1=O | -1.5 | x
CC(=O)NC(CC(=O)Nc1ccc2c(c1)OCCO2)c1ccccc1 (stereo not given) | 0.2 | x
NS(=O)(=O)c1ccc(C23CC4CC(CC(C4)C2)C3)cc1 | 1.1 | x
COc1cccc(C(=O)NCCS(=O)(=O)NC2CCCC2)c1 | 3.3 | 0.0815
CCN(CC(=O)Nc1ccccc1N1CCOCC1)CC(=O)NC1CCS(=O)(=O)C1 (stereo not given) | 0.8 | x
CCOC(=O)c1cc(-c2ccc(OC)c(S(=O)(=O)NC3CCCc4ccccc43)c2)on1 (stereo not given) | 2.5 | 0.713
CC(=O)N[C@H]1[C@H](OCCN2C(=O)c3ccccc3C2=O)O[C@H](CO)[C@@H](O)[C@@H]1O | -4.2 | 1.32
CNS(=O)(=O)c1cccc(C(=O)OC2CCCCC2=O)c1 (stereo not given) | 2.3 | x
COC(=O)CNC(=O)Cc1cccc2ccccc12 | 2.4 | x
Cc1oc2ccccc2c1CCOC(=O)c1ccc(Cl)cc1 | 0.4 | x
CC(C)N(C(=O)NC(=O)Nc1ccc(S(=O)(=O)N2CCCC2)cc1)S(C)(=O)=O | -1.2 | x
N#CC1(NC(=O)CSc2nc3scc(-c4cccs4)c3c(=O)[nH]2)CCCCC1 | 1.7 | x

Profiles, looked up by structure. Screens in order: Ab BasE inh | KSHV LANA nucl
Results for NS(=O)(=O)c1ccc(C23CC4CC(CC(C4)C2)C3)cc1 : 1.1 | x
Results for CC(=O)N[C@H]1[C@H](OCCN2C(=O)c3ccccc3C2=O)O[C@H](CO)[C@@H](O)[C@@H]1O : -4.2 | 1.32
Results for CCOC(=O)c1cc(-c2ccc(OC)c(S(=O)(=O)NC3CCCc4ccccc43)c2)on1 (stereo not given) : 2.5 | 0.713

Following part
SMILES | Ab BasE inh | KSHV LANA nucl
CCOC(=O)c1[nH]c2ccccc2c1NC(=O)c1cccc(OC)c1OC | -0.7 | -0.264
O=C(CSc1nnc(-c2cccs2)n1C1CC1)NC(=O)C1COc2ccccc2O1 (stereo not given) | 1.3 | x
COC(=O)c1sc(N)c(C(=O)OC)c1COC(=O)c1ccc2c(c1)OCCO2 | -1.6 | x
COc1ccc(/C=N/N=C/c2c(O)[nH]c(=O)[nH]c2=O)cc1 | -0.9 | x
Clc1ccc(-c2cnc3n2CCCCC3)cc1 | 0.5 | x
O=C(COc1ccc(-c2nnco2)cc1)N(CCc1ccccc1)Cc1ccccc1 | 0.0 | x
CN(C)c1ccc(C2NCCS2)cc1 (stereo not given) | 0.2 | -0.792
CCn1nc(C(=O)n2cc(C(=O)c3ccccc3O)cn2)c2ccccc2c1=O | 3.0 | x
COCC(=O)n1nc(-c2ccco2)nc1NCc1ccccc1 | 4.0 | -0.549
O=C([C@@H]1CCCN1S(=O)(=O)c1ccc(Cl)cc1)N1CCN(c2ccccc2)CC1 | 1.7 | x
c1ccc(-c2c(-c3ccccc3)n(Cc3ccco3)c3ncnc(NCCCn4ccnc4)c23)cc1 | 1.4 | 0.0665
O=C(CO)Nc1cc(Cl)ccc1Cl | -0.3 | x
O=C(Cn1c(=O)oc2ccccc21)Nc1cccnc1 | 1.4 | 0.149
CCn1c(NCCCO)nc2ccccc21 | 1.9 | -0.728
Clc1ccc(-c2ccnc3ncnn23)cc1Cl | x | 0.733
CCN(CC)S(=O)(=O)c1ccc(-c2nnc(SCC(=O)Nc3nc4ccccc4s3)o2)cc1 | 1.3 | -0.243
Cc1cc(C)nc(Nc2ccc(S(N)(=O)=O)cc2)n1 | -2.9 | -0.475
O=C1CCCc2cc(S(=O)(=O)NCc3cccnc3)ccc2N1 | 3.2 | x
O=c1c(O)c(-c2cc(O)c(O)c(O)c2)oc2cc(O)cc(O)c12 | -4.6 | 0.302
COC(=O)c1c(-c2c(Cl)cccc2Cl)noc1C(=O)NN | 2.0 | x
CN(C(=O)c1cccc(OC(F)F)c1)C1CCCCC1 | 1.2 | x

Source: PubChem BioAssay (ICCB-Longwood Screening Facility, Harvard Medical School)
